From PubChem
HNF4A DNA FP: change in binding of human HNF4 alpha to DNA; HNF4a-FITC DNA binding, fluorescence polarization, 1 h; activity change, % at 10 µM; 360,000 compounds, 0.3% hits; AID 1224865; in the data active means activity change above about 30%, passing the limit was not always enough;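 further: controls were the assay level and a saturating level of protein; the project sought stronger binding though the title names inhibitors; some compounds called inactive have numbers as strong as hits; positive values seem to mean higher polarization but the record does not say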
UCH37 inh: inhibitors of human deubiquitinating enzyme UCH37 | Q9Y5K5 | inhibition, % (concentration not given with the values) | 330,000 compounds, 0.33% hits | AID 588478 | purified proteasome/UCH37, Ub-AMC cleavage fluorescence;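 active means mean of two replicates above 20%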;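 further: 0% = compound-free wells with enzyme and 100% = wells lacking proteasome; stock transfer was 100 nL into about 20 µL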
Target sequence (Q9Y5K5 whole entry, looked up): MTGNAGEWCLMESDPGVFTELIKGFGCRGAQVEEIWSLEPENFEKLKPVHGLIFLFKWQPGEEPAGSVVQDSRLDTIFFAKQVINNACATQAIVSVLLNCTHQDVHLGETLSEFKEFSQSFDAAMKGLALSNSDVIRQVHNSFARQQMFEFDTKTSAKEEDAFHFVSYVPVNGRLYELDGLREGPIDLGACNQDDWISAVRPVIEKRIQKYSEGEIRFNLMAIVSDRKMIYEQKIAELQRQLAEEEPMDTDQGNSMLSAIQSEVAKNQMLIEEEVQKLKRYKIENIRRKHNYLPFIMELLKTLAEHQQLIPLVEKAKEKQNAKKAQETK
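assay system = human UCH37 enzyme supplied as purified proteasome complex | amount = proteasome at 0.15 nM in the dispensed enzyme solution | schedule = 30 min compound-proteasome preincubation then 25 min substrate reaction, room temperature | measured by = fluorescence, ex 355 nm, em 460 nm | benchmarks = no-proteasome wells (full inhibition) and compound-free wells (no inhibition)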
FGF22 binding: shifts melting point of recombinant human FGF22; 340,000 compounds, 1.5% hits; calls only at 9.99 µM; recombinant FGF22 thermal shift, SYPRO orange fluorescence; percent of sucrose octasulfate shift, DMSO zero; Q9HCT0;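 active means melting point raised past a set limit in the mean and every replicate; three in four hits are not shown here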
Beta2AR agonist: human beta-2 adrenergic receptor agonism by FAP | 340,000 compounds, 0.43% hits | response, % (concentration not given with the values) | P07550 | AID 504454 | Am2.2-beta2AR cells, FAP receptor internalization, flow cytometry; reference of the scale not given here;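 active means response above a set limit, near 3 SD of response in nonfluorescent compounds, cut at about 42% in these data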;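 further: stock transfer was 100 nL into about 11 µL; a reference agonist was the positive control; negative values mostly stem from fluorescent compounds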
Target sequence (P07550 whole entry, looked up): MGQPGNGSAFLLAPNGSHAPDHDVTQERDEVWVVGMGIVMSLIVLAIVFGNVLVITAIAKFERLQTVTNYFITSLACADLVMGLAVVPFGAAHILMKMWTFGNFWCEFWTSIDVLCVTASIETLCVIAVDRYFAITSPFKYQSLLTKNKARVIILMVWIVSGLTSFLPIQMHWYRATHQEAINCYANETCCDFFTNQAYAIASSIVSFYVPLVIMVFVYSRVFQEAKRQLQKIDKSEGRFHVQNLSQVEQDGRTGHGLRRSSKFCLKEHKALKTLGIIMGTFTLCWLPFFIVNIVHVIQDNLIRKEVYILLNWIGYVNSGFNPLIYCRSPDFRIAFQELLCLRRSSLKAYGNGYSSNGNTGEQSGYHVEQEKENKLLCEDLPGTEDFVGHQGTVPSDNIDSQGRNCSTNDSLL
ALR H2O2 inh: inhibitors of human sulfhydryl oxidase ALR; P55789; purified ALR, DTT oxidation, H2O2 HRP-luminol luminescence; inhibition, % (concentration not given with the values); 290,000 compounds, 3.8% hits; AID 485317;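 active means mean and each replicate at 75% or more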;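 further: stock transfer was 7.5 nL into about 7.5 µL; 0% = neutral wells and 100% = wells with inactivated enzyme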
Target sequence (P55789 whole entry, looked up): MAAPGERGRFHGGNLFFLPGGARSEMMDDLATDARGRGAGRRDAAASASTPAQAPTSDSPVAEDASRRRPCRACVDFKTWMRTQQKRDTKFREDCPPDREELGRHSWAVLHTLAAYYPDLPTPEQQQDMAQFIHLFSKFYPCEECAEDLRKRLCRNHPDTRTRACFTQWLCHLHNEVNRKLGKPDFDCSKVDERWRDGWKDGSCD
rRNA inh HTS: selective bacterial rRNA inhibition in E. coli | GFP signal change (wild-type ribosome), % (test concentration not listed) | AID 720706 | 350,000 compounds, 1.6% hits | E. coli WT GFP vs humanized-ribosome RFP mutants, fluorescence, 24 h; active compounds read low; DMSO median 0, no signal -100;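 active means significant combined selectivity score with lowered wild-type GFP, culture density cut under 30%, mutant RFP and density less affected; inactive means any of these conditions unmet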; further: one replicate is shown; some compounds called inactive have numbers as strong as hits
Ecoli growth: inhibitors of Escherichia coli growth | OD600, 23 h; active compounds read low | OD600 absorbance (no concentration beside the values) | 330,000 compounds, 0.21% hits | AID 1053175;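 active means OD600 absorbance below the run mean of sample wells minus 3.6 SD, in any replicate, cut at about 0.56 in these data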;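 further: stock transfer was 300 nL into about 60 µL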
rRNA inh HTS OD600: also measured in rRNA inh HTS; calls as there; OD600 change, %; measured here: OD600 growth;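 optical density of the mix in the first replicate; 0 = DMSO median and -100 = no signal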
rRNA inh HTS RFP: further read-out of rRNA inh HTS, marked with its call; RFP signal change, %; measured here: RFP humanized mutant strains;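 first replicate; 0 = DMSO median and -100 = no signal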
* hit, by the source's call; i = inactive; . = not tested or not shown; + = active, no number; & = joins results of further samples.

1: CC(C)Cc1cc(C(=O)N2CCC(N3CCC(C(=O)NC4CC4)CC3)CC2)n[nH]1
2: CNC(=S)N/N=C/c1ccc(N2CCOCC2)s1
3: O=C1C(=O)N(Cc2cccnc2)C(c2cccc(Br)c2)/C1=C(/O)c1ccc2c(c1)OCO2 (stereo not drawn)
4: CC(=O)Nc1ccccc1NC(=O)c1ccc(C)c(C)c1
5: Cc1cc(NC(=O)CSCC(=O)Nc2ccc(C)c(C)c2)no1
6: Cc1ccc(CN(CC(=O)NCCc2ccccc2)C(=O)CCCC(=O)Nc2cc(C)on2)cc1
7: CC(C)(C)c1ccc(-c2nc3[nH]c(=O)cc(NC(=O)c4ccco4)n3n2)cc1
8: COc1ccc(N(CC(=O)NCCSCc2ccco2)S(=O)(=O)c2ccc(C)cc2)cc1

assay / entry	1	2	3	4	5	6	7	8
HNF4A DNA FP	1.2	2.9	0.3	1.5	-2.1	-16	3.3	-1.7
UCH37 inh	3.2	.	12	1.6	-0.4	0.1	4.5	5.2
FGF22 binding	i	i	i	i	i	.	+	i
Beta2AR agonist	-2	-2	-15	-1	1	-2	13	0
ALR H2O2 inh	-2	0	1	-9	-3	-7	10	-1
rRNA inh HTS	17	11	-3	0	21	.	3	-6
rRNA inh HTS OD600	16	6	-4	4	4	.	7	3
rRNA inh HTS RFP	6.7	7.1	1.6	0.5	0.2	.	-2.7	3.2
Ecoli growth	0.71	.	0.7	0.68	0.64	0.64	0.67	0.69

9: Nc1cc(N)nc(SCC(=O)Nc2cccc(S(=O)(=O)N3CCCCC3)c2)n1
10: COc1cccc(CC(=O)Nc2sc3c(c2C(N)=O)CCCC3)c1
11: Cc1cc(NC(=O)COC(=O)c2cc(S(=O)(=O)N3CCOCC3)ccc2N2CCCCC2)no1
12: CCn1nnnc1SCC(=O)Nc1ccc2c(c1)OCO2
13: CC(C)COC(=O)N(C)C[C@H]1OCc2cn(nn2)CCCC(=O)N([C@@H](C)CO)C[C@@H]1C
14: CCN1CCN(C(=S)Nc2ccc3nc(N4CCN(CC)CC4)cc(C)c3c2)CC1
15: C#CCOCCOCCOCCNc1nc(N2CCN(C(=O)Cn3cc(CCCCN)nn3)CC2)nc(N2CCN(C(=O)Cn3cc(CCCN=C(N)N)nn3)CC2)n1
16: Cc1cnc(NC(=O)CN2CCN(c3ccccn3)CC2)s1

assay / entry	9	10	11	12	13	14	15	16
HNF4A DNA FP	4.3	-1.9	-3.1	-1.0	2.5	-0.7	1.2	-0.8
UCH37 inh	1.3	3.1	0.8	1.6	.	0.9	-0.3	4.6
FGF22 binding	i	i	.	.	i	.	i	.
Beta2AR agonist	4	-20	4	1	.	-2	2	1
ALR H2O2 inh	.	.	2	-9	.	-14	.	1
rRNA inh HTS	-7	1	.	.	0&20	.	5	8
rRNA inh HTS OD600	-5	10	.	.	2&15	.	15	9
rRNA inh HTS RFP	-0.4	1.0	.	.	0.4&1.8	.	1.2	-8.6
Ecoli growth	0.69	0.69	0.76	0.78	.	0.68	0.75	0.74

17: CCCN(CCC)Cc1cc(=O)oc2cc(C)c(Cl)cc12
18: COC(=O)C1=NNC(C(=O)c2ccco2)C1c1ccccc1 (stereo not drawn)
19: Cc1ccc(CSc2cc(C)[nH]c(=O)n2)cc1
20: O=C(c1ccccc1)c1ccccc1C(=O)c1ccccc1
21: NS(=O)(=O)c1cccc(NC(=O)COC(=O)c2cc([N+](=O)[O-])ccc2N2CCCC2)c1
22: CC(C)OCCCNC(=O)C(Cc1ccccc1)NS(=O)(=O)c1ccc2c(c1)CCC(=O)N2 (stereo not drawn)
23: CCCCc1nc(SCC(=O)Nc2cccc(Cl)c2)n[nH]1
24: COc1cccc(C(=O)N(C)CC2CCN(CCc3cccc(C(F)(F)F)c3)CC2)c1

assay / entry	17	18	19	20	21	22	23	24
HNF4A DNA FP	-1.0	6.7	12	3.3&-1.8	0.5	-1.3	-2.9	2.2
UCH37 inh	.	-0.4	1.3	2.9&3.2	6.2	0.9	.	3.5
FGF22 binding	i	i	i	i	+	i	i	i
Beta2AR agonist	.	7	-5	33&23	-9	2	-2	-3
ALR H2O2 inh	.	1	-7	-10&-9	-1	-4	3	.
rRNA inh HTS	-8	17	-2	-9&-18	-47	7	-36	8
rRNA inh HTS OD600	-22	7	-16	-10&-13	-55	6	-38	6
rRNA inh HTS RFP	7.7	3.4	5.3	1.2&0.1	-1.0	1.0	-8.2	2.8
Ecoli growth	.	0.66	0.73	0.66&0.7	0.71	0.69	.	0.67

Quoted from above, entries 17–19
17: CCCN(CCC)Cc1cc(=O)oc2cc(C)c(Cl)cc12
18: COC(=O)C1=NNC(C(=O)c2ccco2)C1c1ccccc1 (stereo not drawn)
19: Cc1ccc(CSc2cc(C)[nH]c(=O)n2)cc1

assay / entry	17	18	19
HNF4A DNA FP	-1.0	6.7	12
UCH37 inh	.	-0.4	1.3
FGF22 binding	i	i	i
Beta2AR agonist	.	7	-5
ALR H2O2 inh	.	1	-7
rRNA inh HTS	-8	17	-2
rRNA inh HTS OD600	-22	7	-16
rRNA inh HTS RFP	7.7	3.4	5.3
Ecoli growth	.	0.66	0.73

Later entries:
25: Cc1cc(=O)oc2cc(NC(=S)NNC(=O)c3c(Cl)cnn3C)ccc12
26: CCc1ccc(OCCOCCN2CCN(C)CC2)cc1
27: O=C(c1cccc([N+](=O)[O-])c1)N1CCN(S(=O)(=O)/C=C/c2ccccc2)CC1
28: CCn1c(C)c(C2=CCN(S(=O)(=O)c3ccc(C)cc3)CC2)c2ccccc21
29: CN(C)S(=O)(=O)c1cccc(NC(=O)COC(=O)/C=C/c2ccco2)c1
30: CCCOc1ccc(-c2nn(-c3ccccc3)cc2/C=C2\SC(=S)N(C3CCS(=O)(=O)C3)C2=O)cc1 (stereo not drawn)
31: Cc1csc(=O)n1CC(=O)OCC(=O)NNC(=O)c1ccc([N+](=O)[O-])cc1
32: CCc1ncn(CCc2ccccc2OC)c1C(C)C

assay / entry	25	26	27	28	29	30	31	32
HNF4A DNA FP	0.1	0.1	-1.6	11	-3.5	-17	2.4	4.4
UCH37 inh	-83	1.5	-0.4	0.2	1.9	7.3	2.0	.
FGF22 binding	i	i	i	.	.	.	i	i
Beta2AR agonist	0	2	-14	0	-6	-1	0	.
ALR H2O2 inh	1	2	-1	.	0	2	-17	.
rRNA inh HTS	7	10	-4	.	.	.	8	14
rRNA inh HTS OD600	10	8	5	.	.	.	11	4
rRNA inh HTS RFP	-2.3	-1.9	-2.2	.	.	.	-4.1	3.7
Ecoli growth	0.7	0.67	0.71	0.73	0.68	0.64	0.65	.

33: COC(=O)C1CN(C(=O)COc2ccc(Cl)cc2Cl)c2ccccc2O1 (stereo not drawn)
34: CC(=O)Nc1nn(CC(C)C)c2nc3ccc(C)cc3cc12
35: CCOC(=O)CNC(=O)C1c2ccccc2C(=O)N(c2ccc(OC)cc2)C1c1ccc(OC)cc1 (stereo not drawn)
36: CN(CCc1ccccc1)C(=O)c1cccc(NC(=O)Cc2cccc(NC(=O)C3CCCN(C(=O)C4CCCC4)C3)c2)c1 (stereo not drawn)
37: COc1ccc(-n2c(=S)[nH]c(=O)c3cccnc32)cc1
38: O=C(CSc1nnc(Cc2ccccc2)o1)c1ccc(F)cc1
39: CC(Nc1nc(N2CCCCC2)nc2ccccc12)c1ccccc1 (stereo not drawn)
40: COc1ccc(CNC(=O)[C@H](C)N2C(=O)N3CCc4c([nH]c5ccc(OC)cc45)[C@@]3(C)C2=O)cc1

assay / entry	33	34	35	36	37	38	39	40
HNF4A DNA FP	-1.1	-3.4	-0.3	-0.3	-2.4	2.3	2.5	0.1
UCH37 inh	6.1	.	1.2	4.1	3.6	1.3	-58	1.3
FGF22 binding	i	i	.	i	i	i	.	i
Beta2AR agonist	6	.	7	3	-2	-4	13	-3
ALR H2O2 inh	3	.	-21	.	-2	8	-17	-37
rRNA inh HTS	-9	6	.	-3	17	-12	.	.
rRNA inh HTS OD600	-19	9	.	0	-4	-8	.	.
rRNA inh HTS RFP	1.3	-3.2	.	2.4	-2.5	-0.8	.	.
Ecoli growth	0.67	.	0.7	0.72	0.7	0.69	0.68	0.79

41: O=C(c1ccc(N2CCCCC2)c([N+](=O)[O-])c1)N1CCOCC1
42: Clc1ccc(CN(CC2CCCO2)C(c2cccs2)c2nnnn2C2CCCC2)cc1 (stereo not drawn)
43: COc1cc(CC(=O)OCC(=O)Nc2ccccc2C#N)cc(OC)c1OC
44: CCOC(=O)C1(CCOC)CCN(Cc2ccc3nonc3c2)CC1
45: O=C(NCCN1CCN(C(=O)c2cc3ccccc3oc2=O)CC1)c1cc2ccccc2oc1=O
46: O=C(CCc1nnc(-c2ccc3c(c2)OCO3)o1)NC(c1ccccn1)C(F)(F)F (stereo not drawn)
47: O=C(CSc1nncc(=O)[nH]1)NCc1ccccc1
48: Cc1cc(=O)oc2cc(OCC(=O)OCC(=O)Nc3c(C)n(C)n(-c4ccccc4)c3=O)ccc12

assay / entry	41	42	43	44	45	46	47	48
HNF4A DNA FP	1.2	1.6	-0.4	-0.1	2.9	2.1	-3.1	0.6
UCH37 inh	2.5	-1.7	-0.5	-0.8	4.7	0.3	0.3	-96
FGF22 binding	.	.	i	i	.	i	i	i
Beta2AR agonist	-14	2	6	8	-2	-6	2	0
ALR H2O2 inh	-10	-9	-1	-2	-19	-8	-13	-5
rRNA inh HTS	.	.	1	-1	.	4	11	14
rRNA inh HTS OD600	.	.	0	2	.	5	7	16
rRNA inh HTS RFP	.	.	-0.6	-4.3	.	1.5	1.3	-0.1
Ecoli growth	0.62	0.75	0.67	0.71	0.72	0.66	0.7	0.68

49: CCc1ccc2[nH]c(=O)c(C(c3nnnn3CC3CCCO3)N3CCN4CCCC4C3)cc2c1 (stereo not drawn)
50: O=S(OCCN1CCCC1)C(c1ccccc1)c1ccccc1 (stereo not drawn)
51: C#Cc1ccc(CN2CCN(CCCc3ccccc3)C(CCO)C2)cc1 (stereo not drawn)
52: O=[N+]([O-])c1cccnc1Sc1ccccc1Cl

assay / entry	49	50	51	52
HNF4A DNA FP	12	1.6	0.4	-2.4
UCH37 inh	-12	1.5	-0.1	6.5
FGF22 binding	.	i	i	i
Beta2AR agonist	10	6	4	2
ALR H2O2 inh	-11	.	-1	-1
rRNA inh HTS	.	8	2	5
rRNA inh HTS OD600	.	-1	-4	2
rRNA inh HTS RFP	.	-4.2	4.6	-0.9
Ecoli growth	0.66	0.64	0.69	0.7

This is a subset; the hit share may differ from the screen's.
